Source: PubChem BioAssay
gsp agonist: agonists of gsp mutant (McCune-Albright syndrome); gsp mutant cells, cAMP HTRF, 30 min; control for the full effect not named in the record; Potency, µM (doses to about 76.9 µM), inactives show top-dose activation (cAMP increase), hits mostly activators; 340,000 compounds, 0.13% hits; AID 624287; active = well fitted activation curve with a large enough effect; inconclusive = small, poorly fitted or top-dose-only effect, or another doubt; inactive = no such curve, though single readings can be large or run the other way; cell line not stated here;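 further: phosphodiesterase inhibitor Ro 20-1724 added with compounds to block cAMP breakdown; potency means the concentration at half of the fitted maximal effect; nearly all actives have a fitted effect of over 60% in size; about a fifth of the inactives were tested at one dose only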
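Cells in DMEM/10% FBS with G418 were pretreated with compounds in DMSO plus […] (300 uM stock) for 30 min at 37C. cAMP was measured by HTRF (cAMP-d2 plus anti-cAMP antibody-K) after 30 min at room temperature.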
TRPV1 potentiator: potentiators of human vanilloid receptor 1 (TRPV1). Q8NER1. TRPV1-expressing cells, Fluo-8 calcium influx, capsaicin EC20 potentiation; host cell line not named in the record; control for the full effect not named in the record. potentiation, % at 8.33 µM. 320,000 compounds, 0.02% hits; active means potentiation above 80%; inconclusive means 30% to 80%; inactive means below 30%; further: 0% is about no effect
Target sequence (Q8NER1 whole entry, looked up): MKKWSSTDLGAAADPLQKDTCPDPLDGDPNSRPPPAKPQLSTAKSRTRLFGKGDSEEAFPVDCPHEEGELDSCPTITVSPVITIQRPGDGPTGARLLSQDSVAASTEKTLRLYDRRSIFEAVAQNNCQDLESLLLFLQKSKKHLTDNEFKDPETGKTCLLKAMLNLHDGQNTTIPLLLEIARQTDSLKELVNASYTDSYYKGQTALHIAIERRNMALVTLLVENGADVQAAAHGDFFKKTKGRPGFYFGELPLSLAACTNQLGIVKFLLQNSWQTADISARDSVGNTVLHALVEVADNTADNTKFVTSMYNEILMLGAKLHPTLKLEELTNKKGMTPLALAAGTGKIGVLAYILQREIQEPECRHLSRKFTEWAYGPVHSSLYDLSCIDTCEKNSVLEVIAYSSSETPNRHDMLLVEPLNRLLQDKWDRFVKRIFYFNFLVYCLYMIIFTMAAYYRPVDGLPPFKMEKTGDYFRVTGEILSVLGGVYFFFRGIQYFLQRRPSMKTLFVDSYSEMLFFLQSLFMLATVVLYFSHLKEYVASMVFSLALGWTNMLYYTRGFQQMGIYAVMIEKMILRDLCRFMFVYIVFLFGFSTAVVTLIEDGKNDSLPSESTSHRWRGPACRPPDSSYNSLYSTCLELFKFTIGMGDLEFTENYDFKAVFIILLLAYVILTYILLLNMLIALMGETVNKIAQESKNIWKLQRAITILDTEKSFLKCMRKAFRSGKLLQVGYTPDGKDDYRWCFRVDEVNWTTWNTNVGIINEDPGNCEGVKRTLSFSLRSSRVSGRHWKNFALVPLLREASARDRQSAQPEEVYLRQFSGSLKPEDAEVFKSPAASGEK
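TRPV1-expressing cells were cultured overnight at 35.5C and loaded with Fluo-8 calcium dye for 40 to 90 min at room temperature. After a 10 s baseline, compound was added and calcium influx was read kinetically for 3 min (ex 480/em 520 nm).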
gsp antagonist: antagonizes gsp, the McCune-Albright syndrome mutation | 340,000 compounds, 0.4% hits | AID 624288 | Potency, µM (titrated, usually from 76.9 µM), for the others: at the top dose activity change, negative = inhibition, actives largely listed as inhibitors | gsp-mutant cells, cAMP HTRF, 30 min; control for the full effect not named in the record; active = falling curve of any shape with a large fitted effect; inconclusive = falling curve, mostly with a smaller effect; inactive = flat or rising curve; cell line not stated here;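 further: intracellular cAMP measured with PDE inhibitor Ro 20-1724 present during compound exposure; potency means the concentration at half of the fitted maximal effect; on the % scale 0 is the no-effect control and ±100 the full control effect; nearly all actives have a fitted effect of over 65% in size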
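Cells, 2000/well, grown 16–24 h in DMEM 10% FBS with 0.5 mg/ml G418, then compounds plus […] (300 uM addition stock), 30 min at 37C. cAMP read by HTRF (cAMP-d2 and anti-cAMP antibody-K in lysis buffer) after 30 min RT.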
Sfp PPTase inh: blocks B. subtilis Sfp PPTase activity. Biochemical Sfp PPTase activity, qHTS. 310,000 compounds, 3.5% hits. Potency, µM, inactives show max response, negative = inhibition, hits mostly inhibitors; active means well fitted inhibition curve with a large enough effect; inconclusive means small, poorly fitted or top-dose-only effect, or another doubt; inactive means no such curve, though single readings can be large or run the other way;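 further: the enzyme is Sfp with the accession as filed and its product quenches rhodamine fluorescence; potency means the concentration at half of the fitted maximal effect; 0% = enzyme reaction without inhibitor and -100% = no enzyme wells; top concentration of the series not given in the record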
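Fluorescence-quenching assay: 15 nM Sfp-PPTase preincubated 15 min at room temperature with compound, then 5 uM rhodamine-CoA and 12.5 uM BHQ-2-labelled YbbR peptide added. Fluorescence (ex 525/em 598 nm) read at start and after 30 min; difference gives rate.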
ClpP mod: qHTS Assay for Activators of ClpP; purified B. subtilis ClpP, FRET peptide cleavage, 20 min; 340,000 compounds, 1.9% hits; Potency, µM (top dose mostly 57.5 µM), for inactives: top-dose activity change, negative = active; active = well fitted falling curve with a large enough effect; inconclusive = small, poorly fitted or top-dose-only effect; inactive = no such curve, though single readings can be large or run the other way; further: potency means the concentration at half of the fitted maximal effect; the source files actives as falling curves though it sought activators and does not explain the sign; nearly all actives have a fitted effect of over 65% in size; many hits overshoot -100%
Target sequence (P80244 whole entry, looked up): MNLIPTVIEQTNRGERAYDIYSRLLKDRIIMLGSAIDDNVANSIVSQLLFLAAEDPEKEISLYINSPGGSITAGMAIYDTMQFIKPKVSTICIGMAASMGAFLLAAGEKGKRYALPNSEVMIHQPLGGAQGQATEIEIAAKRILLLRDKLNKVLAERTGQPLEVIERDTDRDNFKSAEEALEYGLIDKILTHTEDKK
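Buffer: 100 mM Tris/HCl pH8, 100 mM KCl, 0.05% low protease BSA, 2.5% glycerol, 0.01% Tween-20. ClpP 10 microg/mL final; 20 min RT; delta FRET normalized to ADEP and DMSO controls.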
Menin MLL FP FL: displaces fluorescein MLL peptide from human menin; Fluorescence polarization, fluorescein-MLL peptide displacement from menin; FP activity change, % at 61.4 µM; 290,000 tested, under 10 active; inconclusive = falling polarisation curve, or a change in total fluorescence; inactive = total fluorescence flat and polarisation flat or rising; no compound was filed as active; the % refers to the polarisation; negative = inhibition;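 further: % of control where 0% means no effect; inhibitors lower the polarisation; unlabelled MLL peptide was the positive control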
CtBP-E1A blk: CtBP/E1A binding inhibition | AlphaScreen GST-E1A/His-CtBP binding, 1536-well; stronger effect = lower value; control for the full effect not named in the record | 340,000 compounds, 0.49% hits | activity change, % (no concentration beside the values); in the data active means activity change below about -65%; inconclusive means about -30% to -65%; inactive means above about -30%; further: on the % scale 0 is the no-effect control and ±100 the full control effect
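Homogeneous bead-based format: GST-tagged E1A captured on glutathione donor beads, His-tagged CtBP on nickel acceptor beads; compounds precede bead addition by 2 h at 37 °C.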
Numbers without * were called inactive; & = joins results of further samples; [ ] = another dose, or the depositor's remark. Outcome played no part in choosing rows. Share with any hit: about 5.3%.

For CN(C)CC(C)(C)CNc1ccc(S(=O)(=O)N2CCCC2)cn1 the results were gsp agonist 2%, gsp antagonist 4% and CtBP-E1A blk 5.
Screening Cc1cccc(-n2c(Cc3cc(=O)[nH]c(=O)[nH]3)nnc2SCC(=O)N2CCc3ccccc32)c1 returned gsp agonist 2%, TRPV1 potentiator 2, gsp antagonist 7%, Sfp PPTase inh -23%, ClpP mod -2.4% and CtBP-E1A blk -3.
Screening CCCOc1ccc(C2c3c(oc4ccccc4c3=O)C(=O)N2CCCN2CCOCC2)cc1 (stereo not given) returned gsp agonist -16%, TRPV1 potentiator -1, gsp antagonist 0%, Sfp PPTase inh inconclusive, ClpP mod -0.3%, Menin MLL FP FL -2.1 and CtBP-E1A blk 8.
Screening O=C(CCS(=O)(=O)Cc1ccccc1)Nc1nncs1 returned gsp agonist 10%, TRPV1 potentiator 0, gsp antagonist 7%, Sfp PPTase inh 12%, Menin MLL FP FL 4.7 and CtBP-E1A blk 0.
Screening CCN(c1ccccc1)S(=O)(=O)c1ccc(C(=O)Nc2ncccc2C)cc1 returned gsp agonist 20%, TRPV1 potentiator -6, gsp antagonist 3%, ClpP mod -4.1% and CtBP-E1A blk -24.
CC(=O)N1CCc2cc(S(=O)(=O)NCCC(=O)N3CCc4ccccc4C3)ccc21 was read as gsp agonist 13%, TRPV1 potentiator 1, gsp antagonist 40µM*, Sfp PPTase inh 27%, ClpP mod -7.1%, Menin MLL FP FL -0.1 and CtBP-E1A blk 2.
`Cc1ccc(S(=O)(=O)N2CCC(C(=O)OCC(=O)N(CC(C)C)C3CCS(=O)(=O)C3)CC2)cc1C` (stereo not given) gave gsp agonist 3%[15.4 µM], TRPV1 potentiator -1, gsp antagonist 5%, Sfp PPTase inh 3%, ClpP mod -2.1% and CtBP-E1A blk 0.
Screening O=C(Nc1ccc2c(c1)OCO2)C1CCN(C(=O)c2cccs2)CC1 returned gsp agonist inconclusive, TRPV1 potentiator 14, gsp antagonist 14%, Sfp PPTase inh -9%, ClpP mod -1.4%, Menin MLL FP FL -1.0 and CtBP-E1A blk 11.
`COc1cccc2cc(C(=O)C3=C(O)C(=O)N(CCN4CCOCC4)C3c3cccc(Cl)c3)oc12` (stereo not given) gave gsp agonist inconclusive, TRPV1 potentiator 0, gsp antagonist -6%, Sfp PPTase inh 8%, ClpP mod -8.8% and CtBP-E1A blk -9.
Cn1c(SCn2nnc3ccccc3c2=O)nc2ccccc2c1=O was read as TRPV1 potentiator 6, Sfp PPTase inh 4% and Menin MLL FP FL -2.8.
O=C(Nc1ccc(F)cc1)C1CCCN(S(=O)(=O)c2cccc3nonc23)C1 (stereo not given) was read as gsp agonist -14%[15.4 µM], TRPV1 potentiator 1, gsp antagonist 3%, Sfp PPTase inh 0%, Menin MLL FP FL 10 and CtBP-E1A blk 4.
For CN(C)C(=O)c1cccn1-c1ncc(C(F)(F)F)cc1Cl the results were gsp agonist -27%, TRPV1 potentiator -4, gsp antagonist 8%, Sfp PPTase inh 13%, Menin MLL FP FL 4.3 and CtBP-E1A blk 7.
`O=C(O)CC(C(=O)O)N1C(=O)/C(=C/c2ccc(-c3nc4ccccc4s3)o2)SC1=S` (stereo not given) gave gsp agonist inconclusive, TRPV1 potentiator 0, gsp antagonist -20%, Sfp PPTase inh 8.9µM*, ClpP mod 0.2%, Menin MLL FP FL inconclusive and CtBP-E1A blk inconclusive.
Screening O=C(Nc1nnc(S(=O)(=O)N2CCOCC2)s1)c1cccc(F)c1 returned gsp agonist 1%, TRPV1 potentiator 5, gsp antagonist -20%, Sfp PPTase inh 16%, ClpP mod -0.9%&-6.4%, Menin MLL FP FL -1.8 and CtBP-E1A blk 3.
Cc1ccc(C(C(=O)NCc2ccc(F)cc2)N(CCCO)C(=O)C2COc3ccccc3O2)o1 (stereo not given) was read as gsp agonist -3%, TRPV1 potentiator -3, gsp antagonist -6%, Sfp PPTase inh 11%, ClpP mod 1.2% and Menin MLL FP FL 5.7.
For Cc1occc1C(=O)NNC(=O)c1cccc(F)c1 the results were gsp agonist 18%[15.4 µM], TRPV1 potentiator 7, gsp antagonist 7%, Sfp PPTase inh 19% and Menin MLL FP FL -0.1.
COc1ccc(C(=O)NC2CC2)cc1OC1CCN(Cc2cnn(C)c2)CC1 was read as gsp agonist -3%[15.4 µM], TRPV1 potentiator 8, gsp antagonist 10%, Sfp PPTase inh 2%, ClpP mod -0.7% and CtBP-E1A blk 9.
For O=C(CNCCO)N1N=C(c2cccs2)CC1c1cccs1 (stereo not given) the results were gsp agonist 1%, TRPV1 potentiator 6, gsp antagonist -1%, Sfp PPTase inh -16%, ClpP mod -15% and Menin MLL FP FL -2.5.
For C/C(=N\NC(=O)c1ccccc1F)c1cccc(NC(=O)c2ccc(C)cc2)c1 the results were gsp agonist 1%, TRPV1 potentiator -16, gsp antagonist -23%, Sfp PPTase inh 15%, ClpP mod 1.5%, Menin MLL FP FL 3.0 and CtBP-E1A blk 1.
`COc1ccc(NC2CCCN(C(=O)CSc3ccncc3)C2)cc1` (stereo not given) gave gsp agonist -16%, TRPV1 potentiator -15, gsp antagonist -10%, Sfp PPTase inh inconclusive, ClpP mod -5.1%, Menin MLL FP FL -4.1 and CtBP-E1A blk -1.

Reprinted from the part before: 2 compounds, then new ones.
For C/C(=N\NC(=O)c1ccccc1F)c1cccc(NC(=O)c2ccc(C)cc2)c1 the results were gsp agonist 1%, TRPV1 potentiator -16, gsp antagonist -23%, Sfp PPTase inh 15%, ClpP mod 1.5%, Menin MLL FP FL 3.0 and CtBP-E1A blk 1.
`COc1ccc(NC2CCCN(C(=O)CSc3ccncc3)C2)cc1` (stereo not given) gave gsp agonist -16%, TRPV1 potentiator -15, gsp antagonist -10%, Sfp PPTase inh inconclusive, ClpP mod -5.1%, Menin MLL FP FL -4.1 and CtBP-E1A blk -1.
`COc1ccccc1OCc1ccc(C(=O)n2nc(C)c(Cl)c2C)o1` gave gsp agonist 2%, TRPV1 potentiator -29, gsp antagonist 2%, Sfp PPTase inh -8%, ClpP mod -0.3%, Menin MLL FP FL -1.5 and CtBP-E1A blk 22.
For C[C@H]1CN([C@@H](C)CO)C(=O)CCCn2nncc2CO[C@H]1CN(C)S(=O)(=O)c1ccc(C#N)cc1 the results were gsp agonist -57%[inhibitor], ClpP mod 1.2% and CtBP-E1A blk -12.
For COc1ccc(C(=O)Nc2ccc3c(c2)nc2n3CCSC2)cc1 the results were gsp agonist 12%, TRPV1 potentiator -11, gsp antagonist -2%, Sfp PPTase inh 13%, ClpP mod 1.9%, Menin MLL FP FL 4.5 and CtBP-E1A blk -10.
`COc1cc(OC)cc(C(=O)N[C@H](C(=O)NCc2ccco2)C(C)C)c1` gave gsp agonist 36%, TRPV1 potentiator 2, gsp antagonist 7%, Sfp PPTase inh 6%, Menin MLL FP FL 1.9 and CtBP-E1A blk -4.
For CCOc1ccc(OCC(=O)N(C)c2c(N)n(Cc3ccccc3)c(=O)[nH]c2=O)cc1 the results were gsp agonist -42%[inhibitor], TRPV1 potentiator -2, gsp antagonist -4%, ClpP mod -0.5% and CtBP-E1A blk 19.
For O=S(=O)(c1cccc2nsnc12)N1CCOCC1 the results were gsp agonist -30%[inhibitor], TRPV1 potentiator 3, gsp antagonist -6%, Sfp PPTase inh 3%, ClpP mod 0.8%, Menin MLL FP FL -1.3 and CtBP-E1A blk 3.
`O=C(NC(=S)NCCC1=CCCCC1)c1ccc(Br)o1` gave gsp agonist -41%[inhibitor], TRPV1 potentiator -9, gsp antagonist 1%, Sfp PPTase inh 17%, Menin MLL FP FL -1.0 and CtBP-E1A blk -7.
`O=C(Nc1nccs1)c1ccc(N2CCOCC2)c([N+](=O)[O-])c1` gave gsp agonist 7%, TRPV1 potentiator -17, gsp antagonist 5%, Sfp PPTase inh 9%, ClpP mod 1.0% and CtBP-E1A blk -8.
CCn1cc(/C=C(\NC(=O)c2ccc(OC)c(OC)c2)C(=O)N2CCN(C)CC2)c2ccccc21 was read as gsp agonist -13%, TRPV1 potentiator -2, gsp antagonist -7%, Sfp PPTase inh 5%, ClpP mod -0.7%, Menin MLL FP FL -3.5 and CtBP-E1A blk 0.
For O=C(CCc1nc2ccccc2c(=O)[nH]1)N1CCN(S(=O)(=O)c2ccccc2Br)CC1 the results were gsp agonist 14%, TRPV1 potentiator 10, gsp antagonist -3%, ClpP mod 1.3% and CtBP-E1A blk -3.
CCc1nc2oc3cc(OC)ccc3c(=O)c2c(=O)n1Cc1ccco1 was read as gsp agonist -10%, TRPV1 potentiator -10, gsp antagonist -4%, Sfp PPTase inh 35µM*, ClpP mod -4.4%, Menin MLL FP FL 16 and CtBP-E1A blk -22.
`CC(O)CC(=O)NOCc1ccccc1` (stereo not given) gave gsp antagonist 4%, ClpP mod -0.9% and CtBP-E1A blk 6.
Screening C[C@@H]1CCCCO[C@H](CN(C)S(=O)(=O)c2cn(C)cn2)[C@@H](C)CN([C@H](C)CO)C(=O)c2cc(NC(=O)c3ccncc3)ccc2O1 returned gsp agonist 5%, ClpP mod 2.0% and CtBP-E1A blk 0.
`CC1CCN(C(=O)COC(=O)CNC(=O)C23CC4CC(CC(C4)C2)C3)CC1` gave gsp agonist -10%, TRPV1 potentiator -7, gsp antagonist -7%, ClpP mod -2.0% and CtBP-E1A blk 7.
Screening C[C@@H]1ON(C)[C@H]2C[C@H]3c4[nH]c5ccc(-c6ccc7c(c6)OCO7)cc5c4CCN3C(=O)[C@@H]12 returned gsp agonist inconclusive, ClpP mod 3.7% and CtBP-E1A blk -28.
For COCC(C)NC(=O)NC1(C(F)(F)F)Oc2ccc(Cl)cc2O1 (stereo not given) the results were gsp agonist inconclusive, TRPV1 potentiator 6, gsp antagonist -11%, Sfp PPTase inh -28%, ClpP mod -0.3%, Menin MLL FP FL 1.8 and CtBP-E1A blk 3.
Screening Cc1ccccc1C(=O)N/N=C/c1ccc([N+](=O)[O-])s1 returned gsp agonist 2%, TRPV1 potentiator -8, gsp antagonist 7%, Sfp PPTase inh 3%, ClpP mod 0.3%, Menin MLL FP FL -1.6 and CtBP-E1A blk 44.
Cc1cc2ncn(C(=O)c3cc(-c4ccccc4)nc4ccccc34)c2cc1C was read as gsp agonist 17%[15.4 µM], TRPV1 potentiator 1, gsp antagonist -21%, Sfp PPTase inh -6%, ClpP mod 14µM*, Menin MLL FP FL 1.9 and CtBP-E1A blk 9.
